# HCMV UL50-53 inh: inhibitors of HCMV UL50-UL53 nuclear egress complex interaction; HTRF UL50-UL53 interaction, normalized percent inhibition; inhibition, % (test concentration not listed); hit rate 0.15% among 190,000;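 active means both replicates at 50% or more, plus weaker picks with an unusually low signal ratio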;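 further: stock transfer was 100 nL into about 20 µL; 0% = negative control wells and 100% = wells with untagged competitor protein; inactives centre near -12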
# GIV Gai3 FP: inhibitors of GIV GBA-motif binding to rat Galpha-i3; P08753; Galpha-i3/FITC-GIV peptide fluorescence polarization, 90 min; hits give low values; scaled: aluminum fluoride 0%, vehicle 100%; percent of control (FP), % (test concentration not listed); hit rate 0.42% among 210,000; AID 1224905;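 active means replicate mean at 85% of control or lower, very high polarization wells dropped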;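 further: wells of about 15 µL received 100 nL stock; the first replicate is given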
# Target sequence (P08753 whole entry, looked up): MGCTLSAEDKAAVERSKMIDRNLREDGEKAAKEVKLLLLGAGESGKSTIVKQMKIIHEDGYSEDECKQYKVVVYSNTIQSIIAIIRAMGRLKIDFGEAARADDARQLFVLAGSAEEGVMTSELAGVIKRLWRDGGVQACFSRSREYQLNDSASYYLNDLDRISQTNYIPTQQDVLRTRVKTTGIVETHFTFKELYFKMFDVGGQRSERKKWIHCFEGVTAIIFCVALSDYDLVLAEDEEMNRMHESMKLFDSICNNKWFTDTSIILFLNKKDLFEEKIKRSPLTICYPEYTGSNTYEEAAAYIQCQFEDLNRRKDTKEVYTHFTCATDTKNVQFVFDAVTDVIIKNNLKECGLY
# Sa growth 42C: inhibitors of Staphylococcus aureus growth at 42 °C. hit rate 0.53% among 170,000. S. aureus RN4220 growth, OD600, 20 h; hits give low values. relative growth, % (test concentration not listed);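 active means growth at 42 °C up to 50% and 20 or more points under that at 30 °C, or under 10% at both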;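 further: 300 nL library stock went into each well; scaled to the means of positive and negative controls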
# Sa growth 42C second temp: recorded beside Sa growth 42C, whose call it bears; relative growth, %; measured here: growth at 30 °C;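 optical density after 20 h as mean of two plates; 100% = untreated growth and lower means inhibition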
# Numbers without * were called inactive; . = no result given.
SMILES,HCMV UL50-53 inh,GIV Gai3 FP,Sa growth 42C,Sa growth 42C second temp
Cc1cc(NC(=O)/C=C/c2cccs2)n(-c2ccccc2C(F)(F)F)n1,-69,.,102,86
Cc1cc(Cl)c(C(=O)NC(C)C2CC2)cc1Cl (configuration not stated),-18,.,117,83
Cc1cc(-n2sc3ccccc3c2=O)c2ccccc2n1,-16,.,111,94
O=[n+]1cc(-c2ccc(F)cc2)n([O-])c2c1CCC2,.,102,94,93
N#Cc1c(/N=C/c2ccc(F)c(F)c2)sc2c1CCC2,-31,.,98,83
COC(=O)c1cc2oc3ccccc3c2n1Cc1c(C)cc(C)cc1C,2,101,108,97
COc1ccc(NC(=O)COc2ncnc3sccc23)cc1,-5,.,101,93
CCN(CC)C(=O)c1sc2c(c1C)c(=O)n(CCc1ccccc1)c(=O)n2Cc1cccc(Cl)c1,.,103,93,76
N#Cc1ccc(COC(=O)CC2CCS(=O)(=O)C2)cc1 (configuration not stated),-22,.,84,97
COc1cccc(CN(Cc2ccco2)C(c2nnnn2Cc2ccc(F)cc2)C(C)C)c1 (configuration not stated),3,103,94,91
O=c1oc2ccccc2cc1-c1nc(C2CC2)cs1,-19,103,107,91
Cc1nc(-n2nc(C)c(Cc3ccc(Cl)cc3)c2C)sc1C(=O)N1CCC(C)CC1,-10,105,110,96

# An excerpt of these results, with bars between the fields:
compound | HCMV UL50-53 inh | GIV Gai3 FP | Sa growth 42C | Sa growth 42C second temp
COC(=O)c1cc2oc3ccccc3c2n1Cc1c(C)cc(C)cc1C | 2 | 101 | 108 | 97
COc1ccc(NC(=O)COc2ncnc3sccc23)cc1 | -5 | . | 101 | 93
CCN(CC)C(=O)c1sc2c(c1C)c(=O)n(CCc1ccccc1)c(=O)n2Cc1cccc(Cl)c1 | . | 103 | 93 | 76
N#Cc1ccc(COC(=O)CC2CCS(=O)(=O)C2)cc1 (configuration not stated) | -22 | . | 84 | 97
COc1cccc(CN(Cc2ccco2)C(c2nnnn2Cc2ccc(F)cc2)C(C)C)c1 (configuration not stated) | 3 | 103 | 94 | 91
O=c1oc2ccccc2cc1-c1nc(C2CC2)cs1 | -19 | 103 | 107 | 91

# The listing continues.
SMILES,HCMV UL50-53 inh,GIV Gai3 FP,Sa growth 42C,Sa growth 42C second temp
Clc1cccc(-n2cc(-c3ccccc3)c3c(NCC4CCCO4)ncnc32)c1 (configuration not stated),.,105,97,85
Cc1ccc(OCC(=O)Nc2nnc(SCc3cc(=O)c4ccccc4[nH]3)s2)cc1C,.,106,88,88
COc1ccccc1NC(=O)Cc1noc(COC(=O)c2cccc(S(=O)(=O)N3CCc4ccccc43)c2)n1,-18,.,89,88
CN=C1CC(C)(C)CC(=O)/C1=C(\O)CCC(=O)NC,-8,109,69,88
COc1ccccc1N1CCN(C(=O)c2cc3ccc4cccnc4c3[nH]2)CC1,-31,100,81,35
CC(=O)N1N=C(c2ccc3ccccc3c2)OC12CCCC2,.,105,102,86
Fc1ccc(-c2csnn2)cc1,-21,101,.,.
COC(=O)/C(C#N)=C/c1ccc(-c2ccccc2)o1,-59,101,109,102
O=C(Cn1cnc(S(=O)(=O)N2CCCC2)c1)Nc1cccc(Br)c1,.,99,105,97
COC(CN(C)C(=O)C1CCCN(S(=O)(=O)c2ccc3c(c2)oc(=O)n3C)C1)OC (configuration not stated),-27,100,93,84
O=C(Nc1ccc(Cl)cc1OC(F)(F)F)c1cccs1,3,105,84,100
Cc1nn(-c2ccccc2)c(C)c1CN(C)C(=O)c1cc(C2CC2)nn1-c1ccccc1,-20,.,70,82
CCNc1ncnc2onc(C)c12,-30,97,100,90
O=C(NC1CCCCC1)c1cc2cccc3c2n1CCO3,-10,123,.,.
NC(=O)CSc1nc(-c2ccccc2Cl)ns1,.,106,119,79
c1ccc(-c2[nH]ncc2-c2nc3ccccc3[nH]2)cc1,-10,.,89,88
Cc1cccc(N2CCN(C(=O)c3ccc4c(Cl)c5c(nc4c3)CCCC5)CC2C)c1 (configuration not stated),-40,101,108,90
CN(C)C(=O)COc1cc2oc(=O)c3c(c2cc1Cl)CCC3,.,106,118,96
CC1=NN(C(=O)C2CC2)C(=O)C1Cc1ccc(F)cc1 (configuration not stated),20,107,95,99
NC(=O)CCS(=O)(=O)c1ccccc1,-17,.,75,89
O=C(O)CNC(=O)Cn1cnc2sc3c(c2c1=O)CCCC3,.,99,96,85
O=C(CCCCCn1c(=O)[nH]c2ccccc2c1=O)NCCc1ccccc1,.,100,131,86
Cc1n[nH]c(C)c1CCCCCOc1ccccc1,-19,100,0.0*,-0.5*
COC(=O)C1CCN(c2cc(C)c3cccc(C(C)C)c3n2)CC1,-16,.,118,88
O=C(NCc1ccccc1Cl)c1ccc2c(c1)NC(=O)C(CS(=O)(=O)Cc1ccc(Cl)cc1)N2 (configuration not stated),.,295,103,87
CCC1Oc2ccccc2N(CC(=O)N2CCOCC2)C1=O (configuration not stated),.,104,94,91
Cc1ccc(OCC(=O)C(C#N)c2nc3ccccc3[nH]2)cc1 (configuration not stated),-4,.,79,93
COC(=O)c1ccsc1NC(=O)c1cccc(S(C)(=O)=O)c1,-33,106,102,86
C=CCSC1=C(C#N)C(c2ccc(OC)cc2)CC(=O)N1 (configuration not stated),-32,.,88,56
Cc1cc(C(F)(F)F)c2c(N)c(C#N)sc2n1,-43,207,101,110
O=S(=O)(c1ccc(Cl)cc1)N1CCN(c2nc3ccccc3n3cccc23)CC1,-13,105,.,.
Cc1ccc(-n2cc(-c3ccccc3)c3c(N4CCCCC4)ncnc32)cc1,.,110,135,97
CN(C)c1ccc(/C=c2/sc3nnc(-c4ccccc4)n3c2=O)cc1,.,341,90,86
O/N=C/c1ccc(Cl)s1,-49,106,122,102
CCN(CC)c1ccc(C2CC(c3ccc(C)cc3)=NN2C(=O)CCC(=O)O)cc1 (configuration not stated),-49,104,.,.
COc1cccc(N2C(=O)c3cccnc3C2Nc2ccc(C)cc2)c1 (configuration not stated),0,103,.,.
COc1ccc(C2CCCCCN2C(=O)Cn2ncc(=O)c3ccccc32)cc1 (configuration not stated),-27,.,95,102
COc1ccc(OC)c(NC(=O)Cn2cnc3c(oc4ccccc43)c2=O)c1,.,106,119,99
CC(C)(C)c1ccc(C(=O)NNc2cc(N3CCOCC3)nc(N3CCOCC3)n2)cc1,-4,101,96,94
COC(=O)C1=C(C)NC(C)=C(C(=O)OC)C1C(=O)OCCCn1c(=O)[nH]c2ccccc21,-17,.,87,91
CCN(CC)c1ccc(C(=O)N=c2sc3c4ccccc4ccc3n2C)cc1,.,100,91,90
O=C1CC(Nc2c[nH]c(=O)[nH]c2=O)C(=O)N1c1ccc(Br)cc1 (configuration not stated),-9,.,77,88
O=C(Nc1nnc(S(=O)(=O)N2CCCc3ccccc32)s1)c1ccccc1,-20,106,102,67
CNc1cc(C(C)(C)C)nc2c(-c3ccc(F)cc3)c(C)nn12,-12,102,.,.
CC1CC(=O)N(CC(=O)N(C)c2ccccc2)c2cc(S(=O)(=O)N3CCCCC3)ccc2S1 (configuration not stated),-23,104,.,.
CCc1nn2c(=O)c(S(=O)(=O)Nc3ccc(C)c(C)c3)c(C)nc2s1,-3,102,110,75
CC(C)c1ccc(-n2cccc2)cc1,.,100,92,89
CCn1c(=O)c(N2CCC(C(=O)NCc3ccc4c(c3)OCO4)CC2)nc2cccnc21,-13,100,.,.
O=C(CN1CCSc2ccccc21)N1CCN(c2cccc(Cl)c2)CC1,.,115,102,97
CCc1nnc(NC(=O)Cc2ccsc2)s1,-13,.,91,88
c1ccc2nc3c(nc2c1)c1ccccc1n3CN1CCCCC1,-43,104,.,.
Cc1ccc(NC(=O)Cn2c(=O)c(CNc3ccccc3)cc3cc4c(cc32)OCCO4)cc1,.,115,90,68
COc1ccc(-n2nnnc2C2CCN(S(=O)(=O)c3cccc(C(F)(F)F)c3)CC2)cc1,-18,106,89,86
Cc1cc(C)c(NC(=O)CN2C(=O)CCSc3ccc(S(=O)(=O)N4CCCC4)cc32)c(C)c1,.,103,102,89
Cc1cc(Sc2ccccc2NC(=O)COc2ccc(Cl)cc2)n2ncnc2n1,-19,97,.,.
O=C(COC(=O)Cn1cnc2ccccc2c1=O)NC12CC3CC(CC(C3)C1)C2,-23,.,80,95
O=C(CC1(O)C(=O)N(Cc2cccc(F)c2)c2ccccc21)c1ccco1 (configuration not stated),-15,117,90,93
COC(=O)CSc1sc(=S)sc1SCC[n+]1ccccc1,.,102,115,107
O=C(O)CCc1ccc2c(c1)OCCO2,-9,103,92,86
O=C(Cn1cc(S(=O)(=O)Cc2ccccc2Cl)c2ccccc21)NCCc1ccccc1,.,107,107,92
# (listing goes on)
SMILES,HCMV UL50-53 inh,GIV Gai3 FP,Sa growth 42C,Sa growth 42C second temp
COc1ccc(OC)c(NC(=O)CSc2nc3ccccc3nc2N2CCCC2)c1,-5,99,91,90
CCOC(=O)Cn1c(=N)n(Cc2ccccc2F)c2ccccc21,-41,109,95,79
COc1cccc(CC(=O)NC2CCN(c3nccc(C(F)(F)F)n3)CC2)c1,.,100,105,87
Cc1ccc(S(=O)(=O)Nc2ccccc2C(=O)Nc2nccs2)cc1,-2,108,15,6
COCC(C)n1c(C)cc(C(=O)COC(=O)/C(=C/c2cccs2)c2cccs2)c1C (configuration not stated),-11,.,83,95
O=C(c1ccc2c(c1)N(Cc1ccccc1)C(=O)c1ccccc1S2)N1CCCC1,.,97,96,79
COc1ccc(-c2nnc(SCC(=O)c3ccc(NC(C)=O)cc3)o2)cc1OC,.,98,98,100
CCOC(=CNc1ccc2nsnc2c1)OCC,-14,103,100,87
CC1=[N+]([O-])C(C)(C)C(c2ccc(Cl)cc2)=[N+]1[O-],.,102,72,92
CCn1c(=N)n(CC(=O)c2ccc(Br)cc2)c2ccccc21,-4,.,110,54
Brc1csc(CNCCc2ccco2)c1,-5,.,105,98
Cc1ccc(N2C(=O)c3cccnc3C2=O)cc1,7,99,.,.
COc1ccc(C(=O)Nc2ccc3nc(N4CCN(c5ncccn5)CC4)cc(C)c3c2)c(OC)c1,.,102,115,62
COc1ccc(-c2cc(C(F)(F)F)n3nc(C(=O)N4CCCC4)c(Cl)c3n2)cc1OC,-17,103,.,.
COc1cc2ccccc2cc1C(=O)NCC(F)(F)F,-25,.,97,86
c1ccc(-c2cc(N3CCOCC3)n3cnnc3n2)cc1,-1,109,102,102
Cc1ccc(C)c(OC(=O)CSc2nnc(-c3ccc4c(c3)OCO4)o2)c1,-29,100,104,86
Cn1cnnc1SC(C(=O)c1ccccc1)c1ccccc1 (configuration not stated),-9,.,141,90
O=C(CCc1ccccc1)NCCc1csc(-c2cccc(F)c2)n1,.,105,82,84
Cn1c(=O)oc2cc(S(=O)(=O)N3CCC(C(N)=O)CC3)ccc21,3,96,.,.
O=C1CCCc2cc(S(=O)(=O)N3CCCC(C(=O)NCc4ccccc4)C3)ccc2N1 (configuration not stated),.,105,108,87
O=C(NCC1CCCO1)c1ccc(-n2ccc3ccccc32)s1 (configuration not stated),9,106,90,56
Cc1ccccc1CNC(=O)CN1C(=O)C2CCCCN2c2ccc(C(=O)N3CCCC3)cc21 (configuration not stated),.,99,98,89
Cc1ccsc1CNC(=O)c1ccc(Cl)cc1,0,98,95,89
CCc1cccc(NC(=O)CSc2ncc3c(n2)-c2cc(Cl)ccc2N(C)S3(=O)=O)c1,.,101,75,89
COC(=O)CN1C(=O)c2cccc3cccc1c23,-79,103,112,80
N#Cc1cccc(N2C(=O)CCC2=O)c1,-4,103,103,70
CCc1ccc(NC(=O)N2CCc3cc(S(=O)(=O)N4CCC(C)CC4)ccc32)cc1,.,108,80,89
O=C(OCC(=O)N1CCN(C(=O)COC(=O)c2ccncc2)CC1)c1ccncc1,-16,.,108,81
O=C(Nc1nc2ccccc2s1)C1CC(=O)N(c2ccccc2Cl)C1 (configuration not stated),-16,106,.,.
COCCCNC(=O)c1ccc2c(c1)nc1n2CCCCC1,.,102,85,91
O=c1[nH]c(-c2ccccn2)nc2c1CSCC2,6,107,116,96
Cc1cc(C)c2c(n1)sc1c(=O)n(Cc3ccccc3Cl)nnc12,.,97,103,77
COc1ccc(C2C(C(=O)NCc3ccc(F)cc3)CCC(=O)N2c2ccc3c(c2)OCO3)cc1 (configuration not stated),.,107,70,83
Cc1ccccc1/C=N/NC(N)=S,-35,105,93,95
Cc1csc(SCC(=O)NCc2cccs2)n1,-27,.,74,87
COc1ccc(-c2nc(SCC(=O)NC3CCCC3)c(-c3ccc(C)cc3)[nH]2)cc1,.,98,101,92
C=CCn1c(=S)sc2c(Sc3nc4ccccc4[nH]3)ncnc21,10,107,94,93
CC1(C)C2CCC1(C)C(NS(=O)(=O)c1ccc(Cl)cc1)C2 (configuration not stated),21,106,85,88
Cc1noc(C)c1-c1nc(CSc2ccccc2)no1,.,106,97,89
CC(C)C(=O)c1cccs1,-16,.,107,98
Cc1ccc(CCN2C(=O)CSc3c(c(C)nn3-c3ccccc3)C2C(=O)NC2CCCC2)cc1 (configuration not stated),-21,104,.,.

# Profiles from above:
# C=CCn1c(=S)sc2c(Sc3nc4ccccc4[nH]3)ncnc21 reads HCMV UL50-53 inh: 10; GIV Gai3 FP: 107; Sa growth 42C: 94; Sa growth 42C second temp: 93
# CC(C)C(=O)c1cccs1 reads HCMV UL50-53 inh: -16; GIV Gai3 FP: .; Sa growth 42C: 107; Sa growth 42C second temp: 98
# COc1ccc(-c2nc(SCC(=O)NC3CCCC3)c(-c3ccc(C)cc3)[nH]2)cc1 reads HCMV UL50-53 inh: .; GIV Gai3 FP: 98; Sa growth 42C: 101; Sa growth 42C second temp: 92

# Source: PubChem (ICCB-Longwood Screening Facility, Harvard Medical School)
